Arbovirus anti: antivirals against arbovirus infection, primary screen, cell-based, full library, 10K replicate subset; arbovirus infection cell-based antiviral screen; inhibition, % at 10 µM; 0.37% of 200,000 active;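 active = inhibition from about 30%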;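 note: bluetongue infection of BSR cells; cell survival read as ATP light after 72 h; 0% = infected wells without compound and 100% = uninfected wells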
RecA splice inh: Mtb RecA intein splicing inhibitors, primary screen, biochemical, fluorescence, HTS; cell-free RecA intein splicing; inhibition, %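 (about 9 µM by stock and volumes)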; 0.75% of 290,000 active; AID 2221, 2009; in the data active = inhibition above about 30%;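 note: 0% = vehicle wells and 100% = reference inhibitor control wells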
Target sequence (P9WHJ3 whole entry, looked up, canonical isoform): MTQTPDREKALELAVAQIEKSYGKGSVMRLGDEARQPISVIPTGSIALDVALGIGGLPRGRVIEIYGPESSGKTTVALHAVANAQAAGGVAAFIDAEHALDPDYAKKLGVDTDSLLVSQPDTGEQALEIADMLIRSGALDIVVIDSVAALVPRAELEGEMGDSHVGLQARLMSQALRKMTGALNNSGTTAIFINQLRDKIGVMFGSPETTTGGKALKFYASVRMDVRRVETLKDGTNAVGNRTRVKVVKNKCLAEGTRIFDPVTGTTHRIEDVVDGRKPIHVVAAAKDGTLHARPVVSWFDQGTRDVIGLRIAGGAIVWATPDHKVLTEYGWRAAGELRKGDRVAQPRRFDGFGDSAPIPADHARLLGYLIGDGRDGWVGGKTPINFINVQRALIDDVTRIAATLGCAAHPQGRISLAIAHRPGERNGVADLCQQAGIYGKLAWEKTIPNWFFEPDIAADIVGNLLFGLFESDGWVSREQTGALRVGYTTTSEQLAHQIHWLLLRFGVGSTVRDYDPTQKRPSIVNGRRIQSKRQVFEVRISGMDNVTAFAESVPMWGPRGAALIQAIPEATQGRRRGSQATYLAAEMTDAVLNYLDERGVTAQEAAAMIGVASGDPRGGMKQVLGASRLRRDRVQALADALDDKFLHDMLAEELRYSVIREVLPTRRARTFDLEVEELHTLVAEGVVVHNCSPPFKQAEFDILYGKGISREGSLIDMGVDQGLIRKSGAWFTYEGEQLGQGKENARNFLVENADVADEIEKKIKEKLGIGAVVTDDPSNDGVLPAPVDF
Mtb bLac sens: beta-lactam sensitization of Mtb H37Rv, H37Rv | M. tuberculosis H37Rv growth with meropenem, percent inhibition; hits of this screen are not shown here | 0.27% of 330,000 active | inhibition, % at 25 µM;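 active = about 74% or more and at least 40 points above the plate without the antibiotic, then above 30% in a dose series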;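 note: growth measured after seven days incubation then overnight dye step; 0% = bacteria only wells and 100% = bacteria with antibiotic; twin plates without the antibiotic show which effects depend on it; some results filed as inactive read as strong as hits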
YopH inh: YopH tyrosine phosphatase inhibitors, primary screen, biochemical, fluorescence Ex485/Em525. YopH tyrosine phosphatase [Yersinia enterocolitica]. inhibition, %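 (about 10 µM by stock and volumes)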. 0.16% of 140,000 active. AID 898, 2007;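 active = inhibition of 50% or more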;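 note: controls were vehicle for no effect and minimum signal wells for full effect; inactives centre near -20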
Mtb growth: M. tuberculosis H37Rv growth inhibitors, H37Rv strain (AID 1626); 0.95% of 220,000 active; M. tuberculosis H37Rv growth inhibition; higher % means a stronger effect; inhibition, % at 10 µM, or IC50 in µM where a hit was titrated;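 active = confirmed in a dose series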;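 note: bacteria incubated seven days before Alamar blue readout; 0% = bacteria only wells and 100% = bacteria with antibiotic wells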
Arbovirus anti repeat: further read-out of Arbovirus anti, marked with its call; inhibition, %; measured here: 10K subset replicate screen; many hits read low in the repeat;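 first of two repeat runs on a subset; 0% = infected and 100% = uninfected wells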
* hit, by the source's call; . = no result given. Not all compounds are listed; the hit share may differ from the screen's.

A first look (6 entries):
SMILES | Arbovirus anti | RecA splice inh | Mtb bLac sens | YopH inh | Mtb growth | others
Cn1cc(Cl)nc1C(O)c1ccccc1 (configuration not stated) | -4.8 | -0.1 | 1.4 | -28.9 | 5.2%
CS(=O)(=O)c1ccc(Cl)c(NC(=O)COC(=O)CCc2c[nH]c3ccccc23)c1 | . | -0.1 | 98.8 | . | .
Cc1ccc(N2C(=O)CC(Sc3nc4ccccc4o3)C2=O)cc1Cl (configuration not stated) | 6.0 | 5.1 | 93.6 | -34.6 | -12.1%
COc1cc(NC(=O)C2CCN(S(=O)(=O)c3cccs3)CC2)cc(OC)c1 | . | 2.6 | -19.6 | . | .
CCC1CCCCN1CCCn1c(=S)[nH]c2ccccc2c1=O (configuration not stated) | 8.3 | -1.0 | -8.7 | 9.9 | 7.6%
O=c1[nH]c(C2CCCCC2)nc2ccccc12 | 1.2 | 0.5 | -0.5 | 2.6 | -2.5%

Results, from the start:
SMILES | Arbovirus anti | RecA splice inh | Mtb bLac sens | YopH inh | Mtb growth | others
Cn1cc(Cl)nc1C(O)c1ccccc1 (configuration not stated) | -4.8 | -0.1 | 1.4 | -28.9 | 5.2%
CS(=O)(=O)c1ccc(Cl)c(NC(=O)COC(=O)CCc2c[nH]c3ccccc23)c1 | . | -0.1 | 98.8 | . | .
Cc1ccc(N2C(=O)CC(Sc3nc4ccccc4o3)C2=O)cc1Cl (configuration not stated) | 6.0 | 5.1 | 93.6 | -34.6 | -12.1%
COc1cc(NC(=O)C2CCN(S(=O)(=O)c3cccs3)CC2)cc(OC)c1 | . | 2.6 | -19.6 | . | .
CCC1CCCCN1CCCn1c(=S)[nH]c2ccccc2c1=O (configuration not stated) | 8.3 | -1.0 | -8.7 | 9.9 | 7.6%
O=c1[nH]c(C2CCCCC2)nc2ccccc12 | 1.2 | 0.5 | -0.5 | 2.6 | -2.5%
COc1ccc(OC)c(C2C(C#N)=C(N)N(N(C)C)C3=C2C(=O)CC(C)(C)C3)c1 (configuration not stated) | . | 1.2 | -4.6 | . | .
CC(=O)c1cc(-c2ccc(F)cc2)n(CCC(=O)NC(C)(C)C)c1C | 7.8 | 2.3 | 5.4 | . | 0.2%
CN(C)c1ccc(N=Cc2ccco2)cc1 | -2.7 | . | 9.2 | -4.4 | -1.0%
Cc1cc(NC(=O)CSc2nc3c(sc4ccccc43)c(=O)n2CCc2ccccc2)n[nH]1 | -3.0 | -0.3 | 4.1 | -7.1 | 0.6%
CC1Cc2cc(S(=O)(=O)N3CCN(c4ccc(Cl)cc4)CC3)ccc2N1C(=O)C1CC1 (configuration not stated) | . | 0.6 | -1.5 | . | .
COc1ccc(CC2(C)OC(c3ccncc3)=NN2C(C)=O)cc1 (configuration not stated) | 20.9 | -2.2 | 4.0 | . | -6.4%
O=C(CSc1ncnc2scc(-c3ccccc3)c12)N1CCN(c2ccccc2F)CC1 | 5.5 | 0.9 | 1.4 | -35.9 | -63.5%
O=C(CCN1C(=O)/C(=C/c2ccc(F)cc2)SC1=S)Nc1cccnc1 | . | 5.6 | 6.0 | . | .
CC1(C)C(=O)OC(c2ccccc2)C(C)(C)C1=O (configuration not stated) | . | 2.5 | 1.4 | . | -9.6%
CCC(C(=O)Nc1ccccc1)c1ccccc1 (configuration not stated) | -1.2 | -3.9 | -1.5 | -24.4 | 1.3%
CC(OC(=O)CCc1nc2ccccc2[nH]c1=O)c1ccccc1 (configuration not stated) | -4.5 | 2.0 | 0.4 | . | 3.3%
CC(C)C(NC(=O)CN1C(=O)c2ccccc2C1=O)c1ccccc1 (configuration not stated) | . | -2.1 | 1.1 | . | .
CC(C)(C)c1cc(-c2n[nH]c(=S)n2-c2ccc(Cl)cc2)n[nH]1 | . | 2.0 | 3.2 | . | -3.3%
COc1ccccc1OCCn1cc(C(=O)O)c2ccccc21 | 1.4 | 0.8 | 0.7 | . | -0.6%
COc1ccc(NC(=O)CCNS(=O)(=O)c2cc(Br)ccc2Br)cc1S(N)(=O)=O | . | -2.6 | 1.9 | . | .
Cc1ccc(SCC(=O)OCC(=O)N(C)CC(=O)Nc2ccc(F)cc2)cc1C | . | -0.5 | 2.6 | . | .
CCC(=O)N1CCC(c2ccc(OC)cc2)=N1 | -3.5 | -0.7 | 3.6 | -3.0 | -2.5%
COc1cc2c(cc1NC(=O)c1ccc(C(C)(C)C)cc1)CCCC2 | 18.1 | 0.3 | 0.4 | -21.8 | .
CC(=C1C(=O)c2ccccc2C1=O)N1CCN(c2ccc(F)cc2)CC1 | . | -3.2 | -9.2 | . | -10.6%

Further compounds follow.
SMILES | Arbovirus anti | RecA splice inh | Mtb bLac sens | YopH inh | Mtb growth | others
CCOc1ccc(C(=O)Nc2c3c(nn2C(C)(C)C)CSC3)cc1OCC | -0.9 | 0.7 | . | -11.8 | -8.3%
Cc1ccc(NC(=O)C/C(N)=N/OC(=O)c2ccccc2)cc1 | 3.2 | -0.5 | -4.8 | . | 7.2%
COc1ccc(S(=O)(=O)Nc2ccc(S(=O)(=O)N3CCCCC3)cc2)cc1OC | 3.7 | 0.5 | -6.1 | -23.3 | -10.8%
CN1C(=O)C(O)N=C(c2ccccc2)c2ccccc21 (configuration not stated) | . | 1.9 | -3.9 | . | .
CCCC1(CCC)C(=O)NC(=NCc2ccccc2)NC1=O | -29.1 | . | 1.1 | -11.5 | -6.7%
CCCc1nnc(NC(=O)CCCN2C(=O)c3ccccc3C2=O)s1 | 2.2 | -0.7 | -1.5 | -21.3 | -6.9%
Cc1ccccc1S(=O)(=O)c1cc(C#N)c(=O)[nH]c1N | 5.1 | -2.4 | -4.0 | . | .
CCC(=O)Nc1cc(-c2nc3ncccc3o2)ccc1Cl | . | -0.3 | 2.2 | . | .
CCC1CCCCN1S(=O)(=O)c1ccc(NC(=O)c2cccs2)cc1 (configuration not stated) | -24.1 | 3.5 | 2.9 | -2.9 | -0.2%
COc1ccc(CCNC(=O)NCCc2c[nH]c3ccccc23)cc1OC | . | -1.2 | -1.3 | . | .
COc1ccccc1CC(=O)O/N=C(\N)c1cccc([N+](=O)[O-])c1 | 5.7 | 1.7 | 38.4 | -35.8 | -1.6%
CCCc1nc2sc(C(=O)OCC)c(N)c2c2c1COC(C)(C)C2 | 7.1 | -0.9 | 70.9 | -0.7 | -0.8%
CC(C)CN1C(Nc2ccccc2)=NC[C@@H]1C | . | -1.0 | -0.3 | . | .
COc1ccc(Cl)cc1NC(=S)N1CCCCCC1 | . | 2.2 | -6.3 | . | .
CCOc1cc(/C=C2/SC(=S)N(C)C2=O)ccc1Oc1ccc([N+](=O)[O-])cc1[N+](=O)[O-] | -3.5 | 0.6 | -2.1 | . | -4.5%
COc1ccc(N(CC(=O)NCCSCc2ccccc2Cl)S(C)(=O)=O)cc1Cl | . | 3.2 | 1.4 | . | .
CC(=O)Nc1ccc(NC(=O)c2cc(C)nn2-c2ccccc2)cc1 | 8.3 | 0.9 | -0.8 | -27.4 | -4.0%
O=Cc1ccc(Sc2ncccn2)o1 | 9.6 | . | . | . | -3.9%
COCC(=O)Nc1cc(C(=O)Nc2ccccc2)ccc1Cl | -5.2 | 2.3 | -4.8 | . | 0.1%
Cc1ccc(C(=O)Nc2ccon2)cc1S(=O)(=O)N1CCCCCC1 | 7.0 | 1.7 | -11.5 | -17.2 | 1.4%
Cc1ccc(-c2cc3nc4c(c(=O)n3[nH]2)CCCC4)cc1 | -5.6 | 0.4 | 1.8 | 5.7 | -5.0% | Arbovirus anti repeat=-1.8
O=C(Nc1ccccc1F)c1ccc2ncsc2c1 | . | -2.6 | 0.8 | . | .
O=C1NC(=O)C(CCc2ccncc2)(CCc2ccncc2)C(=O)N1Cc1ccccc1 | 2.5 | 3.1 | 3.6 | . | -7.1%
Cc1ccccc1N(Cc1nnc2n1CCCCC2)C(=O)Nc1ccccc1 | -1.4 | -6.6 | -12.8 | -41.5 | 2.2%
Cn1c(SCC(=O)N2CCCC2=O)nc2ccccc21 | 4.0 | -4.1 | 1.7 | . | 2.0%

Of the compounds above, 5 have a thiophene ring, fused or not:
SMILES | Arbovirus anti | RecA splice inh | Mtb bLac sens | YopH inh | Mtb growth | others
COc1cc(NC(=O)C2CCN(S(=O)(=O)c3cccs3)CC2)cc(OC)c1 | . | 2.6 | -19.6 | . | .
Cc1cc(NC(=O)CSc2nc3c(sc4ccccc43)c(=O)n2CCc2ccccc2)n[nH]1 | -3.0 | -0.3 | 4.1 | -7.1 | 0.6%
O=C(CSc1ncnc2scc(-c3ccccc3)c12)N1CCN(c2ccccc2F)CC1 | 5.5 | 0.9 | 1.4 | -35.9 | -63.5%
CCC1CCCCN1S(=O)(=O)c1ccc(NC(=O)c2cccs2)cc1 (configuration not stated) | -24.1 | 3.5 | 2.9 | -2.9 | -0.2%
CCCc1nc2sc(C(=O)OCC)c(N)c2c2c1COC(C)(C)C2 | 7.1 | -0.9 | 70.9 | -0.7 | -0.8%

The listing continues:
SMILES | Arbovirus anti | RecA splice inh | Mtb bLac sens | YopH inh | Mtb growth | others
CCNc1ccc(C(=O)OCC(=O)NC(C)c2ccccc2)cc1[N+](=O)[O-] (configuration not stated) | 4.6 | -1.6 | 0.8 | -20.9 | 3.5%
CSc1nnc(-c2ccco2)c(-c2ccco2)n1 | 10.5 | 5.6 | 7.0 | 17.9 | 3.0%
CCOC(=O)/C=c1\s/c(=C\c2ccc(C#N)cc2)c(=O)n1CC(=O)NCc1ccco1 | -4.1 | -0.4 | 3.2 | -8.6 | -5.7%
COc1c2c(c(C)c3c1C(=O)OC3)O[C@@]1(C)CC[C@@]3(O)C(C)(C)OC(=O)CC[C@]3(C)[C@H]1C2 | . | -4.3 | -6.8 | . | -10.2%
Cn1c(=O)c2c(nc(NC(Cc3ccccc3)C(=O)O)n2Cc2ccccc2)n(C)c1=O (configuration not stated) | 5.6 | 5.3 | -9.3 | -37.2 | -6.1%
Cc1ccc(NC(=O)c2ccc3c(c2)OCCO3)cc1S(=O)(=O)Nc1cccc(Cl)c1 | -26.7 | 3.5 | 6.3 | -3.0 | 15.5%
O=C(NNC(=O)c1sc2cccc(Cl)c2c1Cl)NC1CCCCC1 | -0.1 | 1.4 | -6.4 | -17.0 | 6.2%
O=C1Nc2ccccc2Sc2ccccc21 | 7.3 | 2.6 | -0.9 | . | 3.0%
CCOC(=O)c1c(C)n(C)c2ccc(OCC(O)CNC(CC)CO)cc12 (configuration not stated) | 9.3 | 1.8 | 5.2 | -8.2 | -1.0%
CC(C)c1ccc(OCC(=O)Nc2cccc(C(=O)Nc3ccccc3C(=O)O)c2)cc1 | 26.3 | 5.9 | 4.5 | . | 15.9%
Cc1cccc2nc(-c3ccccc3)nc(N[C@@H](CO)c3ccccc3)c12 | -18.9 | 2.9 | 19.0 | -2.3 | 7.8%
CN1CCN(C(=O)C2=C[C@H](c3ccc(C(F)(F)F)cc3)C[C@H](OCc3ccc(CO)cc3)O2)CC1 | 4.5 | -2.8 | -6.0 | . | -7.2%
COc1ccccc1N1CCN(S(=O)(=O)c2ccc3c(c2)oc(=O)n3C)CC1 | . | -3.4 | 2.0 | . | .
COc1ccc(OC)c(N(CC(=O)N2CCC(C)CC2)S(=O)(=O)c2ccc(OC)c(OC)c2)c1 | 3.4 | -1.2 | 1.5 | -38.4 | -3.1%
CN(C)C(/C=C/Nc1cccc(Br)c1)=C(C#N)C#N | 5.3 | 5.1 | -9.5 | . | -2.9%
CCOC(=O)c1sc(NC(=O)C(C)(C)C)cc1C | -4.0 | -0.9 | 0.6 | -46.6 | -3.1%
COc1ccc2[nH]c3c(=O)n(N)c(C)nc3c2c1 | -3.9 | 2.1 | -2.0 | -28.1 | -2.5%
CSc1nnc(-c2ccc(S(=O)(=O)N3CCOCC3)cc2)n1CC1CCCO1 (configuration not stated) | 5.6 | -18.6 | -14.2 | -0.5 | 0.1%
CC(C)(C)C(=O)NCCCc1ccccc1 | 10.1 | -0.1 | -5.1 | -5.4 | 6.9%
COc1cc(-c2nnc(SCC(=O)N3CCCC3)o2)cc(OC)c1OC | 1.1 | -1.2 | -2.0 | -27.0 | -4.0%
O=C(NC(=S)Nc1ccc2oc(=O)ccc2c1)c1cccc(F)c1 | . | -2.9 | 2.4 | . | .
CCCCCC(=O)Nc1cccc(C2=NOC3(C2)C[C@H](C(N)=O)N(C(=O)[C@H]2CCC(=O)N2)C3)c1 (some centres not stated) | . | -0.7 | 4.0 | . | -1.1%
CC(C)n1nnnc1SCC(=O)Nc1ccccc1F | . | 0.2 | 1.2 | . | .
O=C(O)C[C@H]1c2ccc(C(F)(F)F)cc2S(=O)(=O)N1C1CCCCC1 | . | -7.7 | -6.4 | . | 3.0%
CC(C)(O)C#Cc1ccc([C@@H]2C[C@H]3CN(c4ccccc4)C(=O)[C@]34CCCN24)s1 | -20.2 | 1.8 | -0.8 | . | -0.4%
Cc1ccc(NC(=O)COC(=O)c2ccccc2-c2nc3ccccc3s2)c(C)c1 | 1.4 | 0.8 | 1.6 | -20.1 | 4.1%

Source: PubChem BioAssay
